Assay outcomes: PubChem, several laboratories
PKD1 kinase inh: inhibitors of human PKD1 kinase, biochemical, fluorescence polarization; actives 0.056% (n = 200,000); Serine/threonine-protein kinase D1 (Homo sapiens), Q15139; AID 797, 2007; inhibition, %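 (about 10 µM by stock and volumes)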; PKD1 kinase fluorescence polarization assay;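 active means inhibition of 50% or more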;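 further: controls were vehicle for no effect and a reference inhibitor for full effect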
Target sequence (Q15139 whole entry, looked up): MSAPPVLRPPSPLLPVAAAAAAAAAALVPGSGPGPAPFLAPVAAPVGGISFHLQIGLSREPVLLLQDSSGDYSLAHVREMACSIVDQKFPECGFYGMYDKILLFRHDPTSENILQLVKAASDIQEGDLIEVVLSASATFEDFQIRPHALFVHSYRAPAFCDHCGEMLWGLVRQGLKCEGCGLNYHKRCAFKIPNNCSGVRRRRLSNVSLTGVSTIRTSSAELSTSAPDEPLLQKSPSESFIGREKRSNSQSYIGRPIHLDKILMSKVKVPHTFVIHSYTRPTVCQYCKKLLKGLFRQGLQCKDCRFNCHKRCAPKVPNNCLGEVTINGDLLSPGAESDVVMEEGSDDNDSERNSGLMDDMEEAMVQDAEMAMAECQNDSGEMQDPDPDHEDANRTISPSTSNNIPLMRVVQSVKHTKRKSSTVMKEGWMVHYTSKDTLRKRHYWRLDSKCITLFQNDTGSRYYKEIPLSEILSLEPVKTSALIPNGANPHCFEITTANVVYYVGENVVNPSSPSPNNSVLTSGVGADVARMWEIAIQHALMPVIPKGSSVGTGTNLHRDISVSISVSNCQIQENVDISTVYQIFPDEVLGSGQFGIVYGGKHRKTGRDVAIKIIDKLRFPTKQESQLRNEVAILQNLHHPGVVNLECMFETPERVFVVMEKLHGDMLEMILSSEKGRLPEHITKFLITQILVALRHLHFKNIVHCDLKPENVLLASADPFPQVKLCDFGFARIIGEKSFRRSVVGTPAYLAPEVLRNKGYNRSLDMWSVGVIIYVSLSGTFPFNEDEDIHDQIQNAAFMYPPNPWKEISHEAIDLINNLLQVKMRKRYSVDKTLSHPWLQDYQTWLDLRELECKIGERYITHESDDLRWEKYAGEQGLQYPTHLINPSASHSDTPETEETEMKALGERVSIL
INS promoter inh: inhibitors of insulin promoter-driven GFP, primary screen, imaging, TRM-6 cells (human fetal islet line), eGFP reporter, cell count; reporter expression induced with tamoxifen; inhibition, % at 2 µM; actives 0.9% (n = 130,000); AID 1273, 2008;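 active means inhibition above the mean plus 3 SD, with well images judged a real hit on visual review, cut at about 60% in these data, passing the limit was not always enough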
RGS16-Gao: modulators of RGS16 binding to Galphao, primary screen, biochemical, human proteins, multiplexed bead flow cytometry; actives 0.38% (n = 220,000); bead-based flow cytometry RGS16-Galphao binding, fluorescence; actives lie on both sides; Regulator of G-protein signaling 16 (Homo sapiens) + Guanine nucleotide-binding protein …; binding response (% of control), % at 10 µM;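 active means below 25% or above 175%, edge rows of some plates excepted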;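 further: Galphao activated by GDP with aluminum fluoride before binding; 100% = wells without compound and 0% = beads without RGS; some results beyond the cut were filed as inactive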
HSV replic up: enhancers of HSV replication in host cells, fold increase, host cell viability; HSV replication augmentation in cells; maximum fold increase; actives 0.005% (n = 220,000);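 active means peak rise of 1.5-fold or more in the series; tested in PC3 cells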;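 further: first round at 10 µM; read as green reporter fluorescence; hits show the peak of a series up to 25 µM; 1 = signal of infected wells without compound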
GALR2 ag: GALR2 receptor agonists, primary screen, cell-based; Galanin receptor type 2 (Homo sapiens), O43603; GALR2-expressing cells, agonist activation read-out; activation, %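 (tested at 5 µM)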; actives 0.48% (n = 140,000);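 active means above mean plus 3 SD of all compounds, about 5% in these data, not always enough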;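 further: 0% = vehicle buffer wells and 100% = reference agonist at full effect; tested in CHO reporter cells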
INS promoter inh cell count: also measured in INS promoter inh; calls as there; normalized cell count, %; measured here: cell count, toxicity; reference of the scale not given here;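 cells exposed to compound for 48 h; stained nuclei by imaging scaled within each plate; lower means fewer cells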
HSV replic up primary fold: second read-out of HSV replic up, no call of its own (marks repeat the call); fold increase; compound at 10 µM; measured here: primary screen fold increase 10 uM; tested in PC3 cells;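 GFP signal in the first replicate; 1 = infected wells without compound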
* = called active by the depositor; i = inactive; · = not tested or not shown.

SMILES	PKD1 kinase inh	INS promoter inh	INS promoter inh cell count	RGS16-Gao	HSV replic up	HSV replic up primary fold	GALR2 ag
O=[N+]([O-])c1ccc(Sc2cc[n+]([O-])c3ccccc23)c([N+](=O)[O-])c1	·	·	·	102	i	0.57	·
NC(=S)Nc1ccc2cn[nH]c2c1	-4	53	100	99	i	0.88	·
COc1ccc(Cn2nnnc2C(c2ccc(N(C)C)cc2)N2CCC(C(N)=O)CC2)cc1 (centres undefined)	-2	·	·	103	i	0.89	·
COc1ccc(/C=N/NC(=O)Cc2cccs2)cc1	·	·	·	87	i	0.93	·
O=C(CN1CCN(c2ccccc2)CC1)Nc1ccccc1Sc1ccccc1	-1	6	154	100	i	0.85	-1.5
CCOC(=O)C(=CNc1ccc(C(F)(F)F)cc1)C(=O)OCC	·	·	·	102	i	1	·
Cc1cc(O)cc(=O)n1Cc1ccco1	-4	6	96	98	i	1	-0.7
CC(C)(C)OC(=O)NCCCCCc1nnc(SCC(N)=O)o1	3	16	114	107	i	0.81	-2.9
CCOc1ccc(-n2c(C)nc3cc(C(=O)NCCCN4CCOCC4)ccc32)cc1	-4	-23	57	151	i	0.96	-0.1
COc1ccc(C(=O)NCc2csc(-c3cccs3)n2)cc1	·	·	·	108	i	0.95	·
COCC(=O)Nc1c(C(=O)Nc2cccc(OC)c2)oc2ccccc12	7	9	118	95	i	0.99	0.0
CC(=O)c1ccc(NC(=O)c2cc3nc4c(c(C(F)(F)F)n3n2)CCCC4)cc1	6	-9	178	92	·	·	-0.6
Cc1nc(C)c(C(=O)NCc2ccc(Cl)cc2)o1	-4	7	92	102	i	0.91	-1.1
COc1ccc(CCn2c(-n3nc(C)cc3C)nc3c2c(=O)[nH]c(=O)n3C)cc1	-12	5	82	·	i	0.93	-0.8
O=C(c1ccc(F)cc1)C(CCCCCC(CN1CCOCC1)C(=O)c1ccc(F)cc1)CN1CCOCC1 (centres undefined)	-2	-3	125	89	i	0.88	0.5
CCn1c(=O)cc(SCC(=O)NCCCN2CCN(c3ccccc3F)CC2)c2ccccc21	18	·	·	98	i	1.1	0.2
CN(c1ncc(C(F)(F)F)cc1Cl)N1C(=O)c2cccc([N+](=O)[O-])c2C1=O	-4	35	85	100	i	1.4	·
Cn1cnc([N+](=O)[O-])c1SCC(O)CCl (centres undefined)	-5	-22	112	102	i	1.1	·
O=C(CSc1ccc(-c2cccc([N+](=O)[O-])c2)nn1)N1CCCCC1	-1	-26	135	99	i	1	·
Cc1cc(=O)n2c(n1)OC(CO)C2 (centres undefined)	-1	·	·	102	i	0.92	-0.2
COC(=O)c1ccc(NC(=O)c2ccc(CN3CCOCC3)cc2)cc1	-11	15	188	114	i	1	-1.3
Cc1ccc(/C(N)=N/OC(=O)CCC2CCCC2)cc1	-4	·	·	102	i	0.97	·
Cc1ccc(C(=O)N2CCN(c3ccc(NC(=O)COc4ccccc4C)cc3)CC2)cc1	4	·	·	104	i	0.86	·
O=C(Cn1nnc2ccccc21)N1CCCCC1	-6	-8	94	128	i	0.88	-1.0
CCOC(=O)c1cnc2cc3c(cn2c1=O)CCCC3	3	0	136	105	·	·	-0.1
Cc1ccc(S(=O)(=O)N2CCC(C(=O)N3CCC[C@H]3C(=O)NC3CCS(=O)(=O)C3)CC2)cc1 (some centres undefined)	-7	-13	117	-65*	i	0.84	-1.6
CCc1cccc(CC)c1NC(=S)NCc1nc2ccccc2[nH]1	0	21	83	103	i	1.4	·
CCn1c(C)[n+](Cc2ccccc2)c2ccc(C(=O)OC)cc21	2	25	83	99	i	0.98	·
CN(C)c1c([N+](=O)[O-])cc2[nH]c(=O)[nH]c2c1[N+](=O)[O-]	-7	4	128	101	i	0.96	-2.9
Cc1cc(Br)c(OCc2ccc(C(=O)N/N=C3\CC(=O)CC(C)(C)C3)cc2)c(Br)c1	1	-57	73	103	i	1.1	0.6
Cc1ccsc1/C=N/NC(=O)c1ccccn1	-10	19	120	109	i	1.1	-0.3
CCCCSC1(SCCCC)N=C(N)C2(C#N)C(c3ccccc3)NC(C)=C(C)C12C#N (centres undefined)	-2	-27	159	99	i	0.89	-0.2
O=C(NCSC1=NCCS1)c1ccccc1	-10	-19	138	102	i	1	0.0
CC(C)Cc1nnc(NC(=O)CCC(=O)Nc2ccc3cn[nH]c3c2)s1	·	·	·	99	i	0.96	·
CN1CCCN(C2C3CC4CC(C3)CC2C4)CC1 (centres undefined)	-7	22	76	119	·	·	-3.8
Cc1nc(-n2nnc3ccccc32)c2c3c(sc2n1)CCCC3	-19	13	101	98	i	0.89	-0.4
Cc1sc(NC(=O)c2ccco2)c(C(c2ccccc2)N2CCC(C)CC2)c1C (centres undefined)	-1	36	101	107	i	0.99	·
CCCCCCn1nc(C(=O)OCC(=O)c2c(N)n(C)c(=O)n(C)c2=O)c2ccccc2c1=O	2	·	·	89	i	0.89	·
Cc1nc(N)c(C#N)c(-c2ccccc2)c1C	0	0	51	58	i	0.99	-1.2
COc1cc(/C=N/N2CCN(c3ccccc3OC)CC2)ccc1O	1	19	80	106	i	0.84	-3.0
CC1(C)N([O-])c2cc([N+](=O)[O-])ccc2[N+]1=O	·	·	·	-9.3*	i	0.9	·
CCCCCCCNc1cccc(C)c1	·	·	·	98	i	0.89	·
O=C(O)CC(NC(=O)C1CCCCC1)c1ccc(OC2CCCC2)cc1 (centres undefined)	-2	45	91	108	i	1	·
CCN1CCN(C(=S)Nc2ccc3nc4n(c(=O)c3c2)CCCCC4)CC1	9	·	·	99	i	0.92	·
CC(C)(C)SCCNC(=O)c1ccccc1	6	·	·	100	i	0.91	-0.1
CCOC(=O)c1csc(NC(=O)CC2CCCC2)n1	1	-36	157	114	i	0.92	·
O=C(c1cccc(N2C(=O)c3ccccc3C2=O)c1)N1CCCCCC1	-5	8	88	101	i	0.91	·
CCCC1(C(=O)OCC)NC(c2cc(OC)c(OC)c(OC)c2)C2C(=O)N(CC)C(=O)C21 (centres undefined)	5	-24	88	62	·	·	-0.6
N/C(=N\OC(=O)c1cc(-c2ccccc2)nc2ccccc12)c1ccc(Cl)cc1	-11	12	59	87	i	0.97	-1.3
Cc1cccnc1NC(=O)c1ccccc1NC(=O)C(C)(C)C	-2	-69	107	103	i	1	0.3
CC(C)N(Cc1cnn(C)c1)Cc1nc(-c2ccc(Cl)cc2)no1	-6	·	·	106	i	1.1	·
COc1ccc(Nc2ccc3c(c2)=NC2(CCCCC2)[N+]=3[O-])cc1	5	·	·	87	i	0.58	-1.7
Cc1cc(C)cc(NC(N)=S)c1	-12	35	101	102	i	0.87	-1.2
CCN(CC)S(=O)(=O)c1ccc(N/N=C/c2ccc(O)cc2)nc1	-2	-11	104	102	i	0.8	·
CC(C(=O)Nc1ccccc1Br)c1ccc([N+](=O)[O-])cc1 (centres undefined)	4	·	·	102	i	0.97	-0.3
CCc1ccc2[nH]c(C(=O)Nc3ccc4c(c3)OCO4)cc2c1	·	·	·	95	i	0.93	·
CC(C)(C)C(=O)Nc1ccc(-c2cn3ccsc3n2)cc1	-11	33	94	102	·	·	-1.0
CN(CC(=O)Nc1ccccn1)S(=O)(=O)c1ccc(Cl)cc1	-2	-56	118	82	i	0.57	-4.3
CCCS(=O)(=O)N1CCN(CC2CC=CCC2)CC1 (centres undefined)	-6	32	127	104	i	1	-2.7
O=C(Nc1ccon1)c1cccc(S(=O)(=O)N2CCCCCC2)c1	1	-21	116	98	i	1	0.4

Record cards (already shown).
Listed for CCc1ccc2[nH]c(C(=O)Nc3ccc4c(c3)OCO4)cc2c1 : PKD1 kinase inh: ·; INS promoter inh: ·; INS promoter inh cell count: ·; RGS16-Gao: 95; HSV replic up: i; HSV replic up primary fold: 0.93; GALR2 ag: ·
Listed for CCCS(=O)(=O)N1CCN(CC2CC=CCC2)CC1 (centres undefined) : PKD1 kinase inh: -6; INS promoter inh: 32; INS promoter inh cell count: 127; RGS16-Gao: 104; HSV replic up: i; HSV replic up primary fold: 1; GALR2 ag: -2.7

More records.
SMILES	PKD1 kinase inh	INS promoter inh	INS promoter inh cell count	RGS16-Gao	HSV replic up	HSV replic up primary fold	GALR2 ag
O=c1[nH]c(=O)n(Cc2ccco2)c2c1C(C(F)(F)F)(C(F)(F)F)N=C(C1CCCCC1)N2	-14	33	96	108	i	0.72	-2.6
COc1ccc(S(=O)(=O)N2CCCCC2)cc1NC(=O)c1ccc2c(c1)OCO2	-4	-32	95	53	i	1	-0.2
O=C(Nc1ccc2c(c1)OCO2)N1CCN(c2ccccc2)CC1	-2	·	·	104	i	0.94	·
COc1cccc(NC(=O)Nc2ccc3nsnc3c2)c1	-5	·	·	102	i	0.87	0.8
O=C(CC1Oc2ccccc2NC1=O)NCc1ccccc1 (centres undefined)	-13	·	·	109	i	0.85	-0.8
COc1ccccc1CCNC(=O)c1ccc(C)o1	-4	-12	110	103	i	0.93	-1.1
CCOC(=O)C(=O)/C(=C\N(C)C)c1onc(-c2c(F)cccc2Cl)c1C(=O)OC	-4	-3	148	122	i	0.85	-1.4
CN(/C(=N\S(=O)(=O)c1ccccc1)c1ccccc1)c1ccc(O)cc1	-10	-129	111	94	·	·	·
Cc1cc([N+](=O)[O-])nn1CCCC(=O)Nc1cc(Oc2ccc(F)cc2)cc([N+](=O)[O-])c1	-14	-133	110	106	i	0.85	-1.4
COc1ccc(-c2csc(NC(=S)NC(=O)c3cccs3)n2)cc1Br	·	·	·	99	i	0.77	·

Given with bars between the fields: entries from further up.
SMILES | PKD1 kinase inh | INS promoter inh | INS promoter inh cell count | RGS16-Gao | HSV replic up | HSV replic up primary fold | GALR2 ag
CC(C)N(Cc1cnn(C)c1)Cc1nc(-c2ccc(Cl)cc2)no1 | -6 | · | · | 106 | i | 1.1 | ·
COc1ccc(Nc2ccc3c(c2)=NC2(CCCCC2)[N+]=3[O-])cc1 | 5 | · | · | 87 | i | 0.58 | -1.7
Cc1cc(C)cc(NC(N)=S)c1 | -12 | 35 | 101 | 102 | i | 0.87 | -1.2
CCN(CC)S(=O)(=O)c1ccc(N/N=C/c2ccc(O)cc2)nc1 | -2 | -11 | 104 | 102 | i | 0.8 | ·
CC(C(=O)Nc1ccccc1Br)c1ccc([N+](=O)[O-])cc1 (centres undefined) | 4 | · | · | 102 | i | 0.97 | -0.3
CCc1ccc2[nH]c(C(=O)Nc3ccc4c(c3)OCO4)cc2c1 | · | · | · | 95 | i | 0.93 | ·
CC(C)(C)C(=O)Nc1ccc(-c2cn3ccsc3n2)cc1 | -11 | 33 | 94 | 102 | · | · | -1.0
CN(CC(=O)Nc1ccccn1)S(=O)(=O)c1ccc(Cl)cc1 | -2 | -56 | 118 | 82 | i | 0.57 | -4.3
CCCS(=O)(=O)N1CCN(CC2CC=CCC2)CC1 (centres undefined) | -6 | 32 | 127 | 104 | i | 1 | -2.7
O=C(Nc1ccon1)c1cccc(S(=O)(=O)N2CCCCCC2)c1 | 1 | -21 | 116 | 98 | i | 1 | 0.4
O=c1[nH]c(=O)n(Cc2ccco2)c2c1C(C(F)(F)F)(C(F)(F)F)N=C(C1CCCCC1)N2 | -14 | 33 | 96 | 108 | i | 0.72 | -2.6
COc1ccc(S(=O)(=O)N2CCCCC2)cc1NC(=O)c1ccc2c(c1)OCO2 | -4 | -32 | 95 | 53 | i | 1 | -0.2
O=C(Nc1ccc2c(c1)OCO2)N1CCN(c2ccccc2)CC1 | -2 | · | · | 104 | i | 0.94 | ·
COc1cccc(NC(=O)Nc2ccc3nsnc3c2)c1 | -5 | · | · | 102 | i | 0.87 | 0.8
O=C(CC1Oc2ccccc2NC1=O)NCc1ccccc1 (centres undefined) | -13 | · | · | 109 | i | 0.85 | -0.8
COc1ccccc1CCNC(=O)c1ccc(C)o1 | -4 | -12 | 110 | 103 | i | 0.93 | -1.1
CCOC(=O)C(=O)/C(=C\N(C)C)c1onc(-c2c(F)cccc2Cl)c1C(=O)OC | -4 | -3 | 148 | 122 | i | 0.85 | -1.4
